Bioassay records (PubChem)
ClpP mod – qHTS Assay for Activators of ClpP. ATP-dependent Clp protease proteolytic subunit (Bacillus subtilis (strain 168)), P80244. purified B. subtilis ClpP, FRET peptide cleavage, 20 min. Potency, µM (highest dose often 57.5 µM), for the others: at the top dose activity change, negative = active. actives 1.9% (n = 340,000); active = well fitted falling curve with a large enough effect; inconclusive = small, poorly fitted or top-dose-only effect; inactive = no such curve, though single readings can be large or run the other way; also: the source files actives as falling curves though it sought activators and does not explain the sign; nearly all actives have a fitted effect of over 65% in size; many hits overshoot -100%
Target sequence (P80244 whole entry, looked up): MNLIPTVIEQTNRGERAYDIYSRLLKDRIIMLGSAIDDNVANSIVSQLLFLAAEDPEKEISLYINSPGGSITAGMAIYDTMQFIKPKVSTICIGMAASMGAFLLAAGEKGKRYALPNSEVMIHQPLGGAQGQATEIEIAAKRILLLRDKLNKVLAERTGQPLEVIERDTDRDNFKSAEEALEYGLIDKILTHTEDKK
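Buffer: 100 mM Tris/HCl pH8, 100 mM KCl, 0.05% low protease BSA, 2.5% glycerol, 0.01% Tween-20. ClpP 10 microg/mL final; 20 min RT; delta FRET normalized to ADEP and DMSO controls.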
* marks the source's active call; other numbers are inactive results; u = inconclusive. Potency is read from the fitted curve at half-maximal effect. Not all compounds are listed, so the mix of outcomes need not match the whole.

mol	ClpP mod
Cc1ccc(-c2cccc(=O)o2)cc1	0.0%
N/C(=N\C(=S)Nc1ccc2c(c1)OCO2)c1ccccc1	0.0%
Nc1c(N=Nc2ccc([N+](=O)[O-])cc2)c(S(=O)(=O)O)cc2cc(S(=O)(=O)O)c(/C=C/c3ccccc3)c(O)c12	1.9%
O=C(Nc1ccccc1)c1cccc2c(-c3cccnc3)coc12	-25%
O=C(c1ccccc1F)N1CCC2CC1c1cc(-c3ccc4c(c3)OCO4)ccc12 (stereo not drawn)	-22%
CC(=O)NC(C)(c1ccccc1)c1nc(-c2ccc(S(C)(=O)=O)cc2)cs1 (stereo not drawn)	-9.9%
C=C1NN(Cc2ccccc2)C(=O)N1c1ccc(OC)cc1	-1.7%
c1ccc(Oc2ccc(-c3cc(NCCc4cccnc4)n4nccc4n3)cc2)cc1	4.2%
CCOC(=O)C1CCCN(C(=O)/C=C/c2ccccc2)CC1 (stereo not drawn)	-0.4%
CCOc1ccc(NC(=O)CSc2nnc3c(n2)[nH]c2ccc(S(=O)(=O)N4CCOCC4)cc23)cc1	9.8%
Cc1ccc(S(=O)(=O)n2c(N)nc3cc(C)c(C)cc32)cc1	1.4%
COc1ccccc1Cc1c(-c2ccco2)nc2ccc(Br)cn12	-0.6%
O=C(C[n+]1cccc2cccc(O)c21)c1ccc(Cl)cc1	-3.1%
COc1ccc(F)cc1-c1cc(C(=O)NCc2ccc(C(F)(F)F)cc2)[nH]n1	u
NC(Cc1ccc(F)cc1)c1csc(Nc2ccc(C(F)(F)F)cn2)n1 (stereo not drawn)	-4.4%
c1ccc(Cc2c(C3CCCCC3)nc3c4ccccc4ccn23)cc1	u
CSc1ccc(CNC(=O)C2(C)CCN2C(C)C)cc1 (stereo not drawn)	0.1%
Cc1ccc(N2CCN(C(=O)C(=O)c3ccc(F)c(F)c3)CC2)cc1	-3.7%
COc1ccc(CC(N)c2csc(NC(=O)c3cccc(OC(F)(F)F)c3)n2)cc1 (stereo not drawn)	-4.6%
COc1ccc(NC(=O)Nc2ccc3nc([C@@H]4O[C@H](CO)[C@@H](O)[C@H](O)[C@H]4O)[nH]c3c2)cc1OC1CCCC1	0.5%
CCOC(=O)[C@]12CCC=C1N(Cc1ccc(Cl)cc1Cl)C(=O)[C@H](CC(=O)N1CCCC1)C2	1.2%
COc1ccc(-c2nc3cc(C)c(Br)c(C)n3c2CC2CCCCC2)cc1OC	-5.9%
Cc1ccc(NC(=O)[C@H](Cc2ccccc2)NC(=O)CC[C@H]2O[C@@H](n3ccc(=O)[nH]c3=O)[C@H](O)[C@@H]2O)cc1C	0.7%
CCCNC(=O)C1(C)CCN(C(=O)c2c(F)ccc(C)c2F)C1 (stereo not drawn)	-3.6%
CN(C)[C@H]1CCN([C@@H]2CS(=O)(=O)N[C@H]2COCc2ccccc2)C1	2.1%
O=C(NC(c1ccc(F)cc1)c1ccc2ccccc2n1)C1CCN(Cc2cccc(C(F)(F)F)c2)CC1 (stereo not drawn)	-5.3%
CN(C)c1ccc(/C=C/c2ccnc3ccccc23)cc1Br	-1.8%
CSc1ccc(CN2CCC(C)(Oc3cccc(Cl)c3)C2)cc1 (stereo not drawn)	-0.3%
COCCNC(=O)C1(C)Cc2c(-c3cccc(C(F)(F)F)c3)ccnc2O1 (stereo not drawn)	-9.7%
O=C(NN=Cc1ccc2c(c1)OCO2)c1ccc([N+](=O)[O-])cc1	1.7%
COc1cc(C#N)c(NC(=S)N2CCN(C(=O)c3ccco3)CC2)cc1OC	-0.7%
OC(c1ccc(F)c(F)c1)c1nc(-c2cncnc2)cs1 (stereo not drawn)	0.6%
CC(C)C1(C)NC(c2ccc3c(c2)OCO3)=CC(c2ccccc2O)N1 (stereo not drawn)	-11%
CC(C)(C)c1ccc(CC(=O)N2CCC2(C)C(=O)NCc2cccc3ccccc23)cc1 (stereo not drawn)	-0.7%
COc1cc(/C=C/c2cncc(/C=C/c3cc(OC)c(OC)c(OC)c3)c2)cc(OC)c1OC	-5.7%
COc1ccc(S(=O)(=O)NC(=O)C2(C)CCN2C(=O)Cc2cc(C)cc(C)c2)cc1 (stereo not drawn)	-1.5%
Cc1cccc(CN2Cc3cccc4c3[C@H](C=CC4)CC2=O)c1	-4.2%
COc1cc2c(cc1OC)/C(=C/C(=O)OCc1ccccc1)OC2	-3.4%
COc1ccc(-c2ccc(N3C(c4cc(OC)cc(OC)c4)=Cc4ccc(OC)cc4C3CC(C)=O)cc2)cc1 (stereo not drawn)	13%
CCCC[n+]1c(/C=C/c2c(OC)cc(OC)cc2OC)ccc2ccccc21	-2.6%
COc1ccc(CNc2ccccc2C(=O)NCc2ccccc2)cc1COc1ccc(NC(C)=O)cc1	4.3%
Cc1cc(F)ccc1-c1cc(C(=O)Nc2ccc(F)cc2)[nH]n1	1.8%
Cc1cc(C(=O)N2CCCC2(C)C(=O)O)c(C)o1 (stereo not drawn)	-4.5%
COc1ccc(C(=O)N2CCOCC2c2cc(C(=O)NCc3ccccc3)no2)cc1 (stereo not drawn)	-4.7%
CC(C)(C)CNC(=O)C1(C)CCN1C(=O)c1ccccc1CCc1ccccc1 (stereo not drawn)	0.0%
O=C(C[n+]1cccc2cccc(O)c21)c1ccc2ccccc2c1	-0.5%
OCCCNc1ncnc2c1ncn2[C@H]1CN(Cc2ccc3c(c2)OCO3)C[C@@H](CO)O1	-0.5%
C/C=C/c1cccc(-c2nc(C(=O)N3CCCCC3)cc3c2[C@H](CCO)N(C(=O)NC(C)C)C3)c1	-0.2%
COc1ccc(CCNC(=O)Nc2ccc3c(c2)c(=O)n(C)n3C)cc1OC	5.1%
CSc1nc(=O)n(CCC#N)nc1SC	2.3%

Retrieved by structure from the list above (2):
mol	ClpP mod
COc1cc(C#N)c(NC(=S)N2CCN(C(=O)c3ccco3)CC2)cc1OC	-0.7%
COc1ccc(S(=O)(=O)NC(=O)C2(C)CCN2C(=O)Cc2cc(C)cc(C)c2)cc1 (stereo not drawn)	-1.5%

Back to the main list; the seven compounds before the break are reprinted first.
mol	ClpP mod
COc1ccc(C(=O)N2CCOCC2c2cc(C(=O)NCc3ccccc3)no2)cc1 (stereo not drawn)	-4.7%
CC(C)(C)CNC(=O)C1(C)CCN1C(=O)c1ccccc1CCc1ccccc1 (stereo not drawn)	0.0%
O=C(C[n+]1cccc2cccc(O)c21)c1ccc2ccccc2c1	-0.5%
OCCCNc1ncnc2c1ncn2[C@H]1CN(Cc2ccc3c(c2)OCO3)C[C@@H](CO)O1	-0.5%
C/C=C/c1cccc(-c2nc(C(=O)N3CCCCC3)cc3c2[C@H](CCO)N(C(=O)NC(C)C)C3)c1	-0.2%
COc1ccc(CCNC(=O)Nc2ccc3c(c2)c(=O)n(C)n3C)cc1OC	5.1%
CSc1nc(=O)n(CCC#N)nc1SC	2.3%
Brc1ccc([C@H]2C=C[C@H]3CCCN4CC[C@H]2[C@@H]3[C@]42CO2)cc1	-11%
COCCCNC(=O)C[C@@H]1C[C@@]2(C(=O)OC)CC(C)(C)CC=C2N(CCc2ccc(OC)c(OC)c2)C1=O	-0.1%
COc1ccc(CCCNC(=O)C2Cc3c(-c4ccc(NC(C)=O)cc4)ccnc3O2)cc1 (stereo not drawn)	3.8%
CC(C)C(N)c1csc(Nc2ccccn2)n1 (stereo not drawn)	-7.3%
CCN(CC)C(=O)c1ccc2sc([C@H]3C[C@H](O)[C@@H](CO)O3)nc2c1	1.0%
O=C(Nc1nccs1)c1csc([C@H]2C[C@H](O)[C@@H](CO)O2)n1	0.6%
CN(C)c1cccc(CNC(=O)c2csc([C@@H]3C[C@H](O)[C@@H](CO)O3)n2)c1	-2.5%
COC(=O)c1ccc(N2C(c3cc(OC)cc(OC)c3)=Cc3ccc(-c4cccnc4)cc3C2CC(=O)C2CC2)cc1 (stereo not drawn)	4.6%
COC(=O)[C@]12CCCCC=C1N(Cc1ccco1)C(=O)[C@H](CC(=O)N1CCC(c3ccccc3)CC1)C2	0.6%
CCc1nc2c(OCC(=O)c3ccc(Cl)cc3Cl)cccn2c1N(C)C(=O)c1ccncc1	-4.4%
COCCNC(=O)C1(C)CCCN(Cc2cc(-c3ccccc3)nn2C)C1 (stereo not drawn)	-0.2%
Cc1cccc(S(=O)(=O)NC(=O)C2(C)CCN2C(=O)c2ccccc2CCc2ccccc2)c1 (stereo not drawn)	-4.0%
O=C1CCC(OCc2ccccc2)CCN1CC[C@@H](Sc1ccccc1)c1ccccc1 (stereo partly drawn)	-2.6%
COCCn1c(=S)[nH]c2cc(C(=O)N3CCN(Cc4ccccc4)CC3)ccc2c1=O	-3.9%
CCCS(=O)(=O)NC(=O)C1(C)CCCN(C(=O)c2cc(F)ccc2C)C1 (stereo not drawn)	1.3%
CC(C)[C@@H]1CC2=C(C(=O)OC(C)(C)O2)[C@H](CCc2ccccc2)O1	-0.1%
CCCCN(C=O)c1c(CC)nc2ccc(C(=O)N3CCN(C)CC3)cn12	-0.7%
COc1cc(CN2C(=O)C(C)ON=C2c2cccs2)cc(OC)c1 (stereo not drawn)	0.6%
O=C(c1ccccc1)C(I)(I)N1CCOCC1	-3.6%
Cc1cccc(C)c1NC(=O)C1(C)CN(S(C)(=O)=O)CC(=O)N1Cc1cccs1 (stereo not drawn)	0.1%
CCC(c1nnnn1-c1ccc2c(c1)OCCO2)N1CCN(C)CC1 (stereo not drawn)	0.1%
O=C(Nc1c(-c2ccccc2)[nH][nH]c1=O)c1cccc(C(F)(F)F)c1	1.1%
CC(=O)O[C@@H]1C[C@H](c2ccccc2)OC(=O)CCCCC1=O	0.0%
CCOc1ccc(CCN2C(=S)N([C@@H](CC(C)C)CN3CCCC3CN3C(=S)NC[C@@H]3Cc3ccccc3)C[C@@H]2CC(C)C)cc1 (stereo partly drawn)	-1.3%
Cc1sc2ccccc2[n+]1CCCCI	-1.3%
COCCNC(=O)C1CCCN(Cc2cccc(C#N)c2)CC1 (stereo not drawn)	0.3%
O=S(=O)(c1ccc2ccccc2c1)N1CCN(c2nc(-c3ccccc3)nc3ccccc23)CC1	-15%
CN(Cc1ccccc1)C(=O)c1csc([C@@H]2O[C@H](CO)[C@@H](O)[C@H]2O)n1	-1.4%
CCc1nc2c(OCc3ccc(C#N)cc3)cccn2c1N(C)C(=O)C(C)C	-1.6%
C=CCNC(=O)c1cc2cc(Cl)ccc2nc1N	5.1%
COc1ccc(CC(N)c2csc(NC(=O)c3cc(C(C)(C)C)nn3Cc3ccccc3)n2)cc1 (stereo not drawn)	-13%
CC1CCN(c2oc(-c3ccc(OCc4ccccc4Cl)cc3)nc2C#N)CC1	4.3%
CCN(CC)CCN(C)C(c1ccnc2ccccc12)c1nnnn1-c1ccc2c(c1)OCCO2 (stereo not drawn)	-7.5%
CNc1nc(NCc2ccccc2)c2sccc2n1	-19%
Cc1ccc(S(=O)(=O)N2C3CCCCC3O[C@H]2CC(=O)c2ccc(F)cc2)cc1 (stereo partly drawn)	-4.0%
CC1(Cc2ccc(Cl)c(Cl)c2)C(=O)Nc2c(Cl)ccc(Cl)c21 (stereo not drawn)	-0.4%
COc1cccc(-c2cnc(C(O)c3ccc(F)c(F)c3)[nH]2)c1 (stereo not drawn)	-4.1%
O=C(NCc1cccnc1)c1cc(C2CCCN(C(=O)c3ccccn3)C2)on1 (stereo not drawn)	-2.9%
Cc1ccccc1S(=O)(=O)NC(=O)C1(C)CCN1C(=O)Cc1cccs1 (stereo not drawn)	-3.5%
CCCC(=O)N1CCC1(C)C(=O)Nc1ccc2c(c1)CCN2C(C)=O (stereo not drawn)	-2.0%
CCc1nc2c(OCc3ccc(C(=O)OC)cc3)cccn2c1N(C)C(=O)CC(C)C	1.6%
CCCS(=O)(=O)NC(=O)C1(C)CCCN(C(=O)c2c(F)cccc2F)C1 (stereo not drawn)	-2.3%
Cc1ccc(CN2C(=O)CCC2(C)c2nnnn2-c2c(C)cccc2C)cc1 (stereo not drawn)	2.1%
CCCCNc1c(-c2ccc(F)cc2)nc2nc(C)cc(C)n12	-5.2%
Cn1c(NCCc2ccncc2)nc2cc(-c3ccccc3)sc2c1=O	u
CC(C)(C)n1nnnc1C(c1ccccc1)N1CCN(C/C=C/c2ccccc2)CC1 (stereo not drawn)	-1.1%
C[C@H](NC(=O)[C@@H]1CCCN1C(=O)OC(C)(C)C)c1ccccc1	-1.1%
CC(C)C[C@H]1CN(CCCC[C@@H]2CNC(=O)C(=O)N2CCc2ccccc2)C(=O)C(=O)N1CCc1ccc(O)cc1	1.5%
CCc1nc2ccc(C(=O)Nc3ccc(Cl)c(Cl)c3)cn2c1N(C)Cc1ccc(OC)cc1	-11%
Cc1ccc(S(=O)(=O)N2C[C@H]3[C@H]4C(=O)N(c5ccccc5)C(=O)[C@H]4CC(=O)[C@H]3[C@@H]2c2ccc(Cl)cc2)cc1	-5.3%

Following part:
mol	ClpP mod
O=S1(=O)CC(O)C(O)CS1 (stereo not drawn)	0.6%
CC(=O)c1ccc(-c2cccc3nccn23)cc1	-6.2%
C=C1C(=O)[C@]23C[C@H]1CCC2[C@@]1(C)C(C[C@@H]3O)[C@](C)(C(=O)OC)CC[C@@H]1O (stereo partly drawn)	3.6%
CCN(CC)C(=O)c1cccc(-c2csc(C(NC(C)=O)c3cccc(OC)c3)n2)c1 (stereo not drawn)	0.3%
COc1cc2c(NC3CCN(C)CC3)nc(N3CCCN(C)CC3)nc2cc1OCCCN1CCCC1	4.4%
CC(C)Oc1ccc(F)cc1-c1cc(C(=O)NCc2ccc(C(F)(F)F)cc2)[nH]n1	u
